Screening results: PubChem BioAssay, several laboratories
HNF4A DNA FP: change in binding of human HNF4 alpha to DNA; HNF4a-FITC DNA binding, fluorescence polarization, 1 h; activity change, % at 10 µM; actives 0.3% (n = 360,000); AID 1224865; in the data active = activity change above about 30%, passing the limit was not always enough;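 also: controls were the assay level and a saturating level of protein; the project sought stronger binding though the title names inhibitors; some compounds called inactive have numbers as strong as hits; positive values seem to mean higher polarization but the record does not say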
Target sequence (P41235 whole entry, looked up): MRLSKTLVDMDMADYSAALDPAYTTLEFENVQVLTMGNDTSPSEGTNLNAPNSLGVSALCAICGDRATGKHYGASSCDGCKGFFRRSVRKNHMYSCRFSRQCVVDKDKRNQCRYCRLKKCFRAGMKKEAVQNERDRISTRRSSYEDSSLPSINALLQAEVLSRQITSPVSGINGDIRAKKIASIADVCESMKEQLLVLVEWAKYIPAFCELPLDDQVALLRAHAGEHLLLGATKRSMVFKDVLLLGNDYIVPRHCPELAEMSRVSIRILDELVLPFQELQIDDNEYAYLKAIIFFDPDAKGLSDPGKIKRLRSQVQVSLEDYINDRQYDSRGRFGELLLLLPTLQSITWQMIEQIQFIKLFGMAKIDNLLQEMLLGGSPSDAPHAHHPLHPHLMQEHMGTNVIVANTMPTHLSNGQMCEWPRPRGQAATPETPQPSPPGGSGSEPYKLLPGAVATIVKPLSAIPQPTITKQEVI
MLL AF4-AF9 inh: inhibitors of human MLL-AF4/AF9 interaction; P42568; AID 651704; actives 0.47% (n = 350,000); inhibition, % at 10 µM; AlphaScreen, biotin-AF4 peptide binding to FLAG-AF9;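 active = every replicate reaching a set inhibition limit, whatever the replicate mean, cut at about 25% in these data; inconclusive = mean inhibition reaches that limit but some replicates miss it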;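 also: 0% = plate neutral control median and 100% = total signal loss; the record names both 10 and 1 µM as test concentration; the first replicate is given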
Vif TR-FRET: HIV-1 Vif–A3G interaction blockers – biochemical, TR-FRET, GST-Vif 1-94, biotin-A3G peptide, dose response retest, primary screen (AID 1117319). inhibition, %, or IC50 in µM where a hit was titrated. TR-FRET GST-Vif / biotin-A3G peptide binding; higher % means a stronger effect; test concentration not given here; strong numbers were not always called active. actives 0.57% (n = 260,000);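 active = above the screen mean plus three standard deviations and confirmed in dose response; inconclusive = results disagree or hit not tested in dose response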;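 also: Vif residues 1-94 fused to GST binding biotinylated APOBEC3G peptide 110-148; 0% = full assay without inhibitor and 100% = GST in place of GST-Vif; retest series ran down from 100 µM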
RanGTP-Impb inh: inhibitors of RanGTP-importin-beta interaction, primary screen, biochemical, FRET, CFP-Ran, YFP-importin-beta, homogeneous. cell-free CFP-Ran/YFP-importin-beta FRET ratio. inhibition, % (test concentration not listed). actives 1.1% (n = 300,000). AID 2216;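 active = most replicates above 15%; inconclusive = exactly half above 15%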;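 also: 0% = DMSO wells and 100% = Ran loaded with GDP instead of GTP; wells of about 40 µL received 100 nL stock; the first replicate is given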
UCH37 DUB inh: blocks the human deubiquitinase UCH37. Q9Y5K5. purified proteasome/UCH37, Ub-AMC cleavage fluorescence. inhibition, % (no concentration beside the values). actives 0.33% (n = 330,000). AID 588478;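 active = mean of two replicates above 20%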;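 also: 0% = compound-free wells with enzyme and 100% = wells lacking proteasome; stock transfer was 100 nL into about 20 µL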
Target sequence (Q9Y5K5 whole entry, looked up): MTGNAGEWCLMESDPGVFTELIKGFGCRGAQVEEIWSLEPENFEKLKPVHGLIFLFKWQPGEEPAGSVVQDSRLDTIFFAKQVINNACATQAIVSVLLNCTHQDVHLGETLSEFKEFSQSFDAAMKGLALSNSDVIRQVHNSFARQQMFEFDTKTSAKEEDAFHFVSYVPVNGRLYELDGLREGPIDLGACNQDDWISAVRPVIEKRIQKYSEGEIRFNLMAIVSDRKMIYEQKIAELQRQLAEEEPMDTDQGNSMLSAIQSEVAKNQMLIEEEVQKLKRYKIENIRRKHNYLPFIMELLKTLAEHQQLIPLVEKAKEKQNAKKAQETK
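Material: human UCH37 enzyme supplied as purified proteasome complex / Amount: 0.15 nM proteasome as dispensed / Buffer or medium: pH 7.4 Tris-HCl (50 mM) with ovalbumin, ATP-MgCl2, DTT / Times: preincubation 30 min, reaction 25 min, room temperature / Technique: AMC fluorescence from Ub-AMC cleavage, excitation 355 nm, emission 460 nm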
Ecoli growth: inhibitors of Escherichia coli growth; OD600, 23 h; active compounds read low; OD600 absorbance (concentration not given with the values); actives 0.21% (n = 330,000); AID 1053175;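 active = OD600 absorbance below the run mean of sample wells minus 3.6 SD, in any replicate, cut at about 0.56 in these data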;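 also: stock transfer was 300 nL into about 60 µL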
FGF22 binding: FGF22 (human) thermal shift binding; actives 1.5% (n = 340,000); calls only at 9.99 µM; AID 651658; recombinant FGF22 thermal shift, SYPRO orange fluorescence; percent of sucrose octasulfate shift, DMSO zero;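 active = melting point raised past a set limit in the mean and every replicate; inconclusive = no clear call; three in four hits are not shown here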
Target sequence (Q9HCT0 whole entry, looked up): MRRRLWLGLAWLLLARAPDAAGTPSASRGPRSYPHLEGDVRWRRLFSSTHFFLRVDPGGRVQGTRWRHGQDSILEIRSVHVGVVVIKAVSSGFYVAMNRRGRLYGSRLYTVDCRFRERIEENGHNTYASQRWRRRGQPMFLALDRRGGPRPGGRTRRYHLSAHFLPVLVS
* marks the source's active call; other numbers are inactive results; i = inactive; ? = inconclusive; nt = not tested or not shown; & = joins results of further samples.

HNF4A DNA FP	MLL AF4-AF9 inh	Vif TR-FRET	RanGTP-Impb inh	UCH37 DUB inh	Ecoli growth	FGF22 binding	compound
2.5	0.0	26%	?	0.7	0.69	i	O=C(/C=C/c1ccc(S(=O)(=O)N2CCOCC2)cc1)NC(=S)Nc1ccc(N2CCOCC2)cc1
2.5	8.3&4.2	nt	nt	6.5	nt	i	C[C@H](CO)N1C[C@H](C)[C@H](CN(C)S(=O)(=O)c2cccs2)Oc2ccc(NC(=O)Nc3ccc4c(c3)OCO4)cc2CC1=O
0.1	nt	1%	-0.6	4.3	0.73	nt	S=c1[nH]nc(-c2cccnc2)o1
-0.1	nt	nt	0.9	4.7	0.75	nt	CN(CC(=O)Nc1ccc(Cl)cc1)c1ccc(S(=O)(=O)N2CCCCC2)cc1[N+](=O)[O-]
3.6	nt	-3%	?	-0.4	0.71	nt	CC(=O)Oc1ccc2oc3c(c2c1)C(=O)CCC3
-2.5	1.3	nt	3.9	2.5	0.7	i	CCOC(=O)CNC(=O)Cc1ccc(OC)cc1
-3.5	-2.8	11%	-1.7	6.8	0.64	i	Clc1ccc(N=C2SCCS2)cc1
5.7	-3.3	2%	nt	-0.8	0.67	nt	N#Cc1ccccc1OCC(=O)Nc1ccc(S(=O)(=O)N2CCOCC2)cc1
-0.1	nt	18%	2.0	nt	nt	nt	COC(=O)c1nn(-c2ccccc2)c(Cl)c1/C=N/OC(=O)c1ccc(Cl)c(Cl)c1
-0.6	nt	-1%	0.0	2.4	0.77	nt	O=C(NC1CCCC1)C1CCCN(S(=O)(=O)c2ccc(-n3cnnn3)cc2)C1 (stereo not given)
0.3	nt	1%	1.3	-1.4	0.69	nt	Cc1ccc(N2C(=O)C(Cc3ccc(O)cc3)NC2=S)cc1C (stereo not given)
4.0	0.3	nt	2.1	1.9	0.7	i	Cc1ccnc(SC2CC(=O)N(c3ccc(C(C)C)cc3)C2=O)n1 (stereo not given)
1.5	nt	19%	-1.9	-2.0	0.75	nt	CCOc1ccc(NC(=O)CN(C)c2ccc(S(=O)(=O)N3CCOCC3)cn2)cc1OCC
0.5	2.0	nt	3.8	2.6	0.7	i	COc1cc(OC)c(C(=O)OCC(=O)N2CCOCC2)cc1OC
-1.7	-3.0	nt	nt	0.3	nt	i	C=CC[C@@H](CC(=O)N(CCO)Cc1ccccc1)C(=O)N[C@H](COC(=O)[C@@H](CC=C)Cc1ccc(F)cc1)Cc1ccccc1
1.5	-2.7	7%	nt	0.5	0.68	i	O=C(Nc1ccccc1N1CCCC1)C1CCCO1 (stereo not given)
-2.9	nt	-2%	-0.1	0.3	0.73	nt	COc1ccc(NC(=O)C2CC(=O)n3cnnc3S2)cc1 (stereo not given)
0.1	5.7	nt	1.5	-0.8	nt	i	CC(C)C[C@H]1CN=C(Nc2ccccc2)N1CCC1CCCCC1
4.4	-1.9	4%	?	-2.9	0.72	i	O=C(c1ccco1)N1CCN=C1SCc1ccc(F)cc1
-4.8	1.2	14%	-3.7	2.0	0.65	i	COc1ccc(OC)c2c(C)c(C)[nH]c12
-1.8	-2.6	4%	4.3	1.0	0.66	i	O=C(COC(=O)C1CCN(c2ccc(C(F)(F)F)cn2)CC1)Nc1ccc(Cl)cc1
-16	nt	nt	-2.4	9.4	0.7	nt	CC(C)(C)c1cc(-c2csc(Nc3ccccc3)[n+]2Cc2ccc(C(=O)O)cc2)cc(C(C)(C)C)c1O
-6.6	-4.4	nt	-0.6	1.2	0.74	i	Cc1nn(CCCC(=O)NCc2ccccc2Cl)c(=O)c2nccn12
-4.2	-1.3	13%	-2.9	-4.6	0.65	nt	CCOC(=O)C1=C(C)OC(N)=C(C#N)C1c1ccc(C)s1 (stereo not given)
1.3	-0.9	3%	nt	3.4	0.71	i	CCN(C[C@H]1N[C@@](CC)(C(=O)OC)[C@H]2C(=O)N(Cc3ccccc3)C(=O)[C@@H]12)S(=O)(=O)c1ccc(-c2ccccc2)cc1
-0.1	nt	-19%	-0.2	3.1	0.74	nt	COc1ccc(-c2noc(COc3ccc(C)c(C)c3)n2)cc1OC
3.2	nt	22%	?	2.7	0.67	nt	COCCCNS(=O)(=O)c1ccc2c(c1)OCCO2
-2.0	0.1	nt	?	3.9	0.69	i	Cc1ccccc1NS(=O)(=O)c1cc(C(=O)NCc2ccncc2)ccc1Cl
-0.1	nt	?	0.6	2.7	nt	nt	CC(=O)OC[C@H]1O[C@@H](n2ncc(=O)[nH]c2=O)[C@H](OC(C)=O)[C@@H]1OC(C)=O
2.5	6.6	20%	-3.5	2.1	0.67	i	O=C(COC(=O)c1ccccc1O)Nc1ccc(S(=O)(=O)N2CCCCC2)cc1

Filtered by structure, those above containing a thiophene ring, fused or not
HNF4A DNA FP	MLL AF4-AF9 inh	Vif TR-FRET	RanGTP-Impb inh	UCH37 DUB inh	Ecoli growth	FGF22 binding	compound
2.5	8.3&4.2	nt	nt	6.5	nt	i	C[C@H](CO)N1C[C@H](C)[C@H](CN(C)S(=O)(=O)c2cccs2)Oc2ccc(NC(=O)Nc3ccc4c(c3)OCO4)cc2CC1=O
-4.2	-1.3	13%	-2.9	-4.6	0.65	nt	CCOC(=O)C1=C(C)OC(N)=C(C#N)C1c1ccc(C)s1 (stereo not given)

Further structures:
HNF4A DNA FP	MLL AF4-AF9 inh	Vif TR-FRET	RanGTP-Impb inh	UCH37 DUB inh	Ecoli growth	FGF22 binding	compound
2.0	nt	3%	0.0	0.8	0.75	nt	COC(=O)[C@@H](NC(=O)NC1CCN(Cc2ccccc2)CC1)C(C)C
1.2	-2.0	nt	nt	5.2	0.69	i	O=C(COC(=O)CCN1C(=O)C2CC=CCC2C1=O)Nc1ccc([N+](=O)[O-])cc1 (stereo not given)
-1.1	-1.8	3%	0.3	nt	nt	i	CCOC(=O)COc1c(/C=N\OC)cc(Cl)cc1OC
-1.2	-1.2	-1%	8.7	0.5	0.71	i	COc1cccc(C(=O)N2C(C(=O)O)CSC2c2ccccc2Cl)c1 (stereo not given)
-0.5	1.7	nt	1.4	2.5	0.66	i	CS(=O)(=O)N1CCN(C(=O)CCc2ccccc2)CC1
1.2	nt	33%	2.6	nt	nt	nt	COc1cc(/C=N/NC(=O)c2cc(C34CC5CC(CC(C5)C3)C4)[nH]n2)ccc1O
0.5	2.5	nt	1.0	0.4	0.68	i	FC(F)(F)c1ccc(Cl)c(NC2=NCCCCC2)c1
4.9	nt	-4%	-5.2	6.1	0.7	nt	CC1=C(C(=O)OCCc2ccccc2)C(c2ccsc2)NC(=O)N1C (stereo not given)
8.1	1.6	nt	0.3	4.3	0.69	i	O=C(c1ccccc1Cl)N1CCC(N2CCC(C(=O)N3CCCC3)CC2)CC1
2.4	0.7	-30%	0.5	-49	0.69	i	COc1cc2c(cc1OC)-c1cc(Nc3cccc(C)c3)nc(=O)n1CC2
0.8	nt	-6%	-0.4	nt	nt	nt	O=C(O)CCC(=O)Nc1nc2nc(-c3ccccc3)cc(-c3ccccc3)n2n1
11	-0.5	nt	6.2	1.6	0.67	nt	COc1ccc(N(C(=O)c2ccco2)C(C(=O)NC2CCCC2)c2ccncc2)cc1 (stereo not given)
-1.0	-7.3	-1%	nt	nt	nt	i	Cc1cccc(C(=O)C(O)(c2ccccc2)C2CCCCC2=O)c1 (stereo not given)
-3.1	2.5	-5%	2.6	2.4	0.71	i	COc1ccc(C(CC(=O)Nc2nccs2)C(C)C)cc1 (stereo not given)
0.2	-3.7	nt	-1.1	0.7	0.77	i	Cc1ccc(NC(=O)c2cc(S(=O)(=O)N3CCOCC3)cn2C)cc1Cl
3.1	nt	1%	4.8	nt	nt	nt	C/C(=N\N=C1\NC(=O)CC(C(=O)O)S1)c1cccs1 (stereo not given)
-2.6	0.0	nt	nt	nt	nt	i	Cn1c(=O)c2cc(NC(=O)Nc3cccnc3)ccc2n1-c1ccc(C(C)(C)C)cc1
-7.7	-1.7	1%	nt	-0.3	0.65	i	CC(=O)Nc1ccc2c(c1)C(=Nc1ccc(C)cc1)c1ccccc1-2
4.6	nt	4%	1.2	2.8	0.67	nt	Cc1ccc(S(=O)(=O)NC(C)(C)CSc2nnc(N)s2)cc1
-3.9	-8.9	nt	nt	nt	nt	i	Cc1ccccc1S(=O)(=O)NC(=O)C1(C)CCN1C(=O)CCc1ccc(Cl)cc1Cl (stereo not given)
2.0	1.5	nt	2.5	0.6	0.7	i	COc1ccc(C(=O)N2CCCC(c3nc(-c4ccc(C)o4)no3)C2)cc1OC (stereo not given)
-3.3	5.7	nt	nt	nt	nt	i	Cc1cccc(C)c1NC(=O)C1(C)CN(S(C)(=O)=O)CC(=O)N1CCc1c[nH]c2ccccc12 (stereo not given)
-2.4	-8.7	4%	0.1	nt	nt	i	CC(=O)Oc1oc(-c2ccccc2)nc1/C=N/c1ccccn1
2.2	nt	12%	0.4	2.4	0.66	nt	O=C(CSc1ncnc2nc[nH]c12)N1CCN(c2ccc(Cl)cc2)CC1
-1.5	0.1	13%	3.6	0.3	0.68	i	N#CC1=C(N)Oc2c(O)cc3ccccc3c2C1c1ccsc1 (stereo not given)
0.3	2.4	20%	0.3	0.6	0.73	i	O=C(N/C(=C\c1cccc([N+](=O)[O-])c1)C(=O)N1CCOCC1)c1ccc([N+](=O)[O-])cc1
0.5	nt	20%	-3.4	0.8	0.74	nt	CC1(C)Cc2c(c(N3CCOCC3)nc3sc4c(NN)ncnc4c23)CS1
-2.0	0.1	nt	-4.9	5.9	0.74	i	Cc1ccc2nc(NNC(=O)c3ccc(S(=O)(=O)N4CCc5ccccc5C4)cc3)sc2c1
0.3	0.9	nt	-1.6	-1.0	0.71	i	COc1ccc(C(=O)Nc2ccc(Nc3ccccc3)cc2)cc1Br
-4.5	-3.4	-10%	nt	0.0	0.67	i	Cc1ccc(NC(=O)N2CCc3ccccc32)cc1C
-0.8	nt	0%	0.7	4.5	0.66	nt	CCN1CCN(c2sc(S(C)(=O)=O)nc2S(=O)(=O)c2ccc(Cl)cc2)CC1
5.2	-0.1	nt	0.4	1.1	0.67	i	Cc1cccc(C(=O)OCN2C(=O)c3ccccc3C2=O)c1[N+](=O)[O-]
0.6	-0.9	-4%	-2.7	-0.4	nt	i	CCCCCC(=O)N1CC2(CC(c3cccc(NC(=O)[C@@H]4CCC(=O)N4)c3)=NO2)C[C@@H]1C(N)=O (stereo not given in full)
2.5	-2.9	18%	-1.2	3.0	0.68	i	O=C(C1CCCO1)N1CCN(c2ccccn2)CC1 (stereo not given)
-5.3	-1.7	-1%	0.5	4.2	0.71	i	Cc1ccc(S(=O)(=O)Nc2ccc(NC(=O)c3cccs3)cc2)cc1
1.9	nt	2%	1.4	4.7	0.67	nt	CCOc1ccc2nc(N(CCN(C)C)C(=O)c3ccc4c(c3)CCCC4)sc2c1
-2.6	0.8	-4%	nt	-2.8	0.69	i	OCC1(CO)CCCC(CO)(CO)C1O
0.5	-0.2	nt	-1.5	6.4	0.68	nt	COc1ccc(/C=C(/NC(=O)c2ccccc2)C(=O)N2CCCC2)cc1OC
4.9	0.9	nt	-1.5	0.5	0.69	i	CSc1ncc(C(=O)Nc2ccc(C)cc2C)c(C)n1
-1.2	nt	3%	-0.8	-3.3	0.68	nt	CCOc1ccc(N2CC(C(=O)Oc3ccccc3)CC2=O)cc1 (stereo not given)
5.4	-1.8	nt	2.7	nt	nt	i	CCOc1ccc(-c2c(C(=O)N/N=C(\C)c3ccncc3)nnn2-c2nonc2N)cc1
-3.2	-2.4	-2%	nt	0.3	0.71	i	Cc1cccc(-n2ncc3c(=O)[nH]c(SCC(=O)Nc4cc(C)on4)nc32)c1
-5.5	nt	-4%	0.0	0.8	0.63	nt	COc1ccccc1CC1(C)NC(=O)N(CC(=O)N2CCc3ccccc3C2)C1=O (stereo not given)
0.7	nt	10%	-0.4	1.1	0.66	nt	O=C(c1ccco1)c1n[nH]nc1-c1ccccc1

A portion of the library; rates above refer to the full screens.
